# Bioassay records as filed in PubChem BioAssay.
# HNF4A DNA FP: change in binding of human HNF4A to DNA, primary screen, biochemical, fluorescence polarization, FITC-DNA | Hepatocyte nuclear factor 4-alpha (Homo sapiens), P41235 | 1 h | activity change, % at 10 µM | 0.3% of 360,000 active; in the data active means activity change above about 30%, passing the limit was not always enough;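 further: controls were the assay level and a saturating level of protein; the project sought stronger binding though the title names inhibitors; some compounds called inactive have numbers as strong as hits; positive values seem to mean higher polarization but the record does not say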
# Target sequence (P41235 whole entry, looked up): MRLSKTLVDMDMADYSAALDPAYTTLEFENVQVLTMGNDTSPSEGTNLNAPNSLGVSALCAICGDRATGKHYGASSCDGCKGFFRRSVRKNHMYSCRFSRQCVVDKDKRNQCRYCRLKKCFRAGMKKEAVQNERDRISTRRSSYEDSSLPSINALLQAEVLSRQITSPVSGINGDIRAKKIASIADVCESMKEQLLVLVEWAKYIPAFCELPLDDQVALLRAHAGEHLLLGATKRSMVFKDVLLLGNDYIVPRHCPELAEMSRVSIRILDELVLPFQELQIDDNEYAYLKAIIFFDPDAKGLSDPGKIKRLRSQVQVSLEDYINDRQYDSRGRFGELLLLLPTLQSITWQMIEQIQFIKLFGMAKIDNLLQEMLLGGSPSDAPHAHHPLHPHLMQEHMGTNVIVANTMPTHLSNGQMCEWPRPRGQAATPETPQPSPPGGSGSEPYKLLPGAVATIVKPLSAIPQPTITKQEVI
# Vif TR-FRET: inhibitors of Vif binding to APOBEC3G peptide, primary screen, biochemical, TR-FRET, GST-Vif 1-94, biotin-A3G peptide, dose response retest (AID 1117319); Virion infectivity factor (Human immunodeficiency virus type 1 group M subtype B (isolate …; TR-FRET GST-Vif / biotin-A3G peptide binding; higher % means a stronger effect; test concentration not given here; strong numbers were not always called active; one-dose inhibition, %; IC50 in µM for titrated hits; 0.57% of 260,000 active;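 active means above the screen mean plus three standard deviations and confirmed in dose response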;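 further: Vif residues 1-94 fused to GST binding biotinylated APOBEC3G peptide 110-148; 0% = full assay without inhibitor and 100% = GST in place of GST-Vif; retest series ran down from 100 µM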
# Active calls of the source: *. Some of the compounds tested (hit frequency here may not be typical).
# Below each SMILES: HNF4A DNA FP | Vif TR-FRET
Cc1ccc(CNC(=O)CN2NS(=O)(=O)c3ccccc3C2=O)cc1
  1.3 | 7%
C[C@H]1CN([C@@H](C)CO)S(=O)(=O)c2ccc(Br)cc2O[C@@H]1CN(C)C(=O)C1CCOCC1
  1.7 | 5%
N#CCCN(C(=S)Nc1ccc(Cl)c(Cl)c1)C1CCCCC1
  0.3 | 5%
CCCc1c(C(=O)N/N=C(\C)c2cc(C)sc2C)nnn1-c1nonc1N
  -3.4 | -3%
C#CCOc1ccc(/C=C2/C(=O)N(c3ccc(S(N)(=O)=O)cc3)N=C2C)cc1OC
  -2.6 | 5%
CC1=C(C(=O)N2CCOCC2)CC(CC(=O)NCc2ccco2)C(=O)N1Cc1ccccc1 (stereo unspecified)
  0.5 | 5%
c1ccc(Sc2ccncc2)cc1
  0.0 | -1%
CCN(C(=O)CN1C(=O)NC2(CCC(C)CC2)C1=O)C1CCCCC1 (stereo unspecified)
  0.5 | -2%
COC(=O)c1ccc2cn[nH]c2c1
  -0.7 | -2%
Cc1ccc(S(=O)(=O)N(C)C[C@H]2OCCCC[C@@H](C)Oc3ccc(N(C)C)cc3C(=O)N([C@H](C)CO)C[C@@H]2C)cc1
  0.1 | -1%
CC1(C)OC2COC(c3[nH]nc4c(=O)[nH]c(=O)[nH]c34)C2O1 (stereo unspecified)
  3.0 | 0%
CN(C)S(=O)(=O)c1cccc(NC(=O)c2ccccc2SCC(=O)N2CCCC2)c1
  1.8 | 9%
O=C(c1ccc(N2CCCC2=O)cc1)N1CCN(c2ccc(C(F)(F)F)cc2[N+](=O)[O-])CC1
  2.6 | 0%
COc1ccccc1NC(=O)N(C)C[C@@H]1OCc2cnnn2CCCC(=O)N([C@H](C)CO)C[C@@H]1C
  -1.7 | -3%
O=C(NCc1ccccc1CN1CCCC1)C1CCN(C(=O)c2ccc(Cl)cc2)CC1
  0.6 | -4%
CC1(C)CC(=O)C=C(c2ccc(CO)cc2)C1=O
  0.5 | 4%
C[C@@H]1CN([C@@H](C)CO)C(=O)CCCn2nncc2CO[C@H]1CN(C)S(=O)(=O)c1ccc(Cl)cc1
  0.9 | 0%
COc1cc2ccc(CC(N)=O)cc2cc1OC
  7.3 | 6%
C[C@H](CO)N1C[C@H](C)[C@@H](CN(C)C(=O)Nc2ccc3c(c2)OCCO3)OCc2cnnn2CCCC1=O
  -1.7 | -1%
COc1ccc(S(=O)(=O)N(C)C[C@H]2OCCCC[C@H](C)Oc3ccc(N(C)C)cc3C(=O)N([C@H](C)CO)C[C@@H]2C)cc1
  3.5 | 8%
CCc1nc(N2CCN(C(=O)CCCl)CC2)c2c3c(sc2n1)CCCC3
  4.7 | -6%
O=C(NCCS(=O)(=O)N1CCN(c2ccccc2)CC1)C1CCCCC1
  1.2 | -5%
Cc1ccc(-c2cc(C(=O)NCC3(N(C)C)CCCCC3)c3ccccc3n2)o1
  -3.4 | 5%
NC(=S)NN=C1CSSC1
  1.6 | 5%
C[C@@H]1CN([C@@H](C)CO)C(=O)CCCn2nncc2CO[C@H]1CN(C)C(=O)c1ccccc1
  -0.2 | -2%
COc1cccc(CNC(=O)c2ccc(F)c(S(=O)(=O)N3CCCCC3)c2)c1
  -0.5 | -1%
Cc1ccc(NC(=S)/C(C#N)=C2/Nc3ccccc3S2)cc1
  -2.8 | 5%
CC(C)N1CCN(c2ccncc2S(=O)(=O)N2CCCCC2)CC1
  4.3 | -1%
COc1ccccc1NC(=O)N(C)C[C@H]1Oc2ncc(Br)cc2C(=O)N([C@H](C)CO)C[C@H]1C
  0.6 | 4%
O=C(OCc1cn([C@H]2CN(CC3CCCCC3)[C@@H](c3ccccc3)C[C@@H]2O)nn1)c1ccccc1
  0.9 | 1%

# 3 entries drawn at random from those above, as already listed:
# Below each SMILES: HNF4A DNA FP | Vif TR-FRET
O=C(OCc1cn([C@H]2CN(CC3CCCCC3)[C@@H](c3ccccc3)C[C@@H]2O)nn1)c1ccccc1
  0.9 | 1%
COc1cccc(CNC(=O)c2ccc(F)c(S(=O)(=O)N3CCCCC3)c2)c1
  -0.5 | -1%
C[C@@H]1CN([C@@H](C)CO)C(=O)CCCn2nncc2CO[C@H]1CN(C)C(=O)c1ccccc1
  -0.2 | -2%

# Later entries.
# Below each SMILES: HNF4A DNA FP | Vif TR-FRET
Cc1ccc(NC(=O)CSc2nc3cc(C(=O)NCC4CCCO4)ccc3c(=O)n2CC2CCCO2)cc1 (stereo unspecified)
  1.4 | -2%
C[C@H](CO)N1C[C@H](C)[C@@H](CN(C)C(=O)Nc2ccc(N3CCN(C)CC3)cc2)OCc2cnnn2CCCC1=O
  -2.0 | -3%
C[C@@H]1CN([C@H](C)CO)C(=O)c2cc(C#C[C@@H](C)O)cnc2O[C@H]1CN(C)C(=O)c1ccc(F)cc1
  2.1 | -2%
CNC(=O)c1ccc(CN(C)C(=O)/C=C/c2ccc(S(=O)(=O)N3CCCCCC3)cc2)cc1
  4.5 | -8%
COc1cccc(-c2cc3nc(C)cc(N4CCN(C(=O)c5ccoc5)CC4)n3n2)c1
  2.6 | 1%
C[C@@H]1CN([C@@H](C)CO)C(=O)CCCn2nncc2CO[C@@H]1CN(C)S(=O)(=O)c1ccc(-n2cccn2)cc1
  1.7 | -4%
O=C(Cc1c(Cl)cccc1Cl)OCC(=O)c1ccc[nH]1
  -6.5 | 2%
C#CCN(C[C@H]1[C@H](OC(=O)NC2CCCC2)[C@H](OC(=O)NC2CCCC2)C[C@H]2C(=O)N(c3ccccc3)C(=O)[C@@H]12)S(=O)(=O)c1ccc(C)cc1
  0.2 | -1%
CNS(=O)(=O)c1ccc(CNC[C@H]2O[C@@H](n3ccc(N)nc3=O)[C@H](O)[C@@H]2O)cc1
  0.6 | 0%
O=c1c2ccccc2sn1-c1ccc(Cl)cc1
  -0.1 | 9%
CC1CCN(c2ccc3c(c2)S(=O)(=O)c2cc(C(=O)O)ccc2C3=O)CC1
  14 | 7%
CCCCCC(=O)N1C[C@@H](n2cc(-c3ccc(F)cc3)nn2)[C@H](O)C[C@@H]1c1ccc(Cl)cc1
  -1.8 | -12%
O=C(NCc1nnnn1-c1ccc(Cl)cc1)C(=O)c1c[nH]c2ccccc12
  1.4 | -2%
Cc1noc(C)c1C(=O)OCC(=O)Nc1cccc(F)c1
  -1.9 | 0%
C[C@H](CO)N1C[C@H](C)[C@@H](CN(C)S(=O)(=O)c2cn(C)cn2)OCc2cn(nn2)CCCC1=O
  1.3 | -10%
N#Cc1ccc(CN2CCN(C(=O)C3CC(=O)N(c4ccc5c(c4)OCCO5)C3)CC2)cc1 (stereo unspecified)
  1.6 | -1%
C[C@@H]1CCCCO[C@@H](CN(C)C(=O)c2ccncc2)[C@@H](C)CN([C@H](C)CO)C(=O)c2cc(NC(=O)Cc3ccccc3)ccc2O1
  0.6 | -2%
CCN1C(=O)[C@H]2[C@@H](c3ccc(C(F)(F)F)cc3)N[C@]3(CCCN(Cc4ccc(Br)cc4)C3=O)[C@H]2C1=O
  1.2 | -3%
Cc1cc(C)c(S(=O)(=O)N2CCN(C(=O)CC(C)n3nc(C)nc3C)CC2)c(C)c1 (stereo unspecified)
  3.0 | 0%
Cc1ccc(C(=O)O)cc1NC(=O)CCc1c(C)noc1C
  -2.4 | 10%
CC1(C)OC(=O)NC1c1ccccc1 (stereo unspecified)
  1.1 | -8%
Cc1nc(N(C)C2CCCCC2)c2nnn(Cc3ccc(F)cc3)c2n1
  -3.9 | -5%
Cc1ccc(S(=O)(=O)NN=Cc2c(O)ccc3ccccc23)cc1
  7.0 | -7%
COc1ccccc1C(=O)NCCCNc1nc2cc(C)cc(C)c2cc1C#N
  3.1 | -18%
CC(C)(C)OC(=O)NCCCCCNC(=O)c1ncn2c1c(=O)[nH]c1ccccc12
  -1.4 | 0%
O=C(O)Cn1ccc2cc(S(=O)(=O)N3CCCCC3)ccc21
  -2.1 | 0%
CCC[C@H]1CN(c2ccc(Br)cc2)C(=O)[C@@H]1CC(=O)Nc1ccc(OC)cc1
  -0.1 | 3%
Cc1ccc(Cc2c(-c3ccc(Cl)cc3)nc3cc(C)ccn23)cc1
  1.2 | 0%
O=C(OCc1ccccc1)N1CCC2CC1c1cc(N3CCN(S(=O)(=O)c4cccc(C(F)(F)F)c4)CC3)ccc12 (stereo unspecified)
  -0.4 | -1%
O=C(C[C@@H]1C[C@@H]2c3cc(NS(=O)(=O)c4ccc(F)cc4)ccc3O[C@@H]2[C@H](CO)O1)N1CCc2ccccc2C1
  -4.6 | 1%

# (listing goes on)
smiles,HNF4A DNA FP,Vif TR-FRET
COc1ccc(S(=O)(=O)N(C)C[C@H]2OCCCC[C@@H](C)Oc3ccc(NC(=O)CCC(F)(F)F)cc3C(=O)N([C@H](C)CO)C[C@@H]2C)cc1,4.7,-2%
C[C@H]1Cn2cnc(C(=O)NCC(=O)OC(C)(C)C)c2C(=O)N1,4.7,0%
Cc1ccc(NC(=O)CSc2nnc3ccccn23)c(Cl)c1,-3.8,-5%
CCN(CC)S(=O)(=O)c1ccc(N2CCCCC2)c(NC(=O)C2CSC3(C)CCC(=O)N23)c1 (stereo unspecified),2.0,0%
Cc1cc(C)cc(-n2ncc3c2CCCC3NC(=O)c2ccccc2)c1 (stereo unspecified),1.9,4%
O=C(COC(=O)c1ccc(S(=O)(=O)N2CCCCCC2)cc1)Nc1ccccc1C(F)(F)F,-3.1,2%
O=C(Nc1ccc2c(c1)OCCO2)c1c(Cl)cccc1Cl,1.2,-5%
COc1cc(NC(=O)C(C)(C)C)c(C(=O)OCC(=O)Nc2cc(C)on2)cc1OC,2.1,-9%
COc1cccc(S(=O)(=O)N(C)C[C@@H]2Oc3ncc(C#CCN(C)C)cc3C(=O)N([C@H](C)CO)C[C@H]2C)c1,4.5,6%
Cc1cccc(C(=O)NC2CCN(CC(=O)Nc3cccc(Cl)c3)CC2)c1,2.2,-1%
C[C@H]1CCCCO[C@H](CN(C)C(=O)Nc2ccc(F)cc2)[C@@H](C)CN([C@@H](C)CO)C(=O)c2cc(NC(=O)Nc3ccc4c(c3)OCO4)ccc2O1,0.1,-3%
CCc1cccc(NC(=O)CSc2nc(C)cs2)c1,3.4,-1%
Cc1[nH]c2ccccc2c(=O)c1CNCc1ccccc1,-3.1,6%
O=c1cnc2ccccc2n1Cc1ccccc1,3.0,1%
CC1NC(=O)c2cc3ccccc3cc2-n2c1nc1cc(Cl)ccc1c2=O (stereo unspecified),2.3,6%
Cc1nc2cc3c(=O)n(C)cnc3cc2n1Cc1ccccc1,2.0,13%
CC(C)c1csc(CN2CCC(C(=O)Nc3cccc(-c4ccco4)c3)CC2)n1,1.2,-1%
C[C@H]1CN([C@@H](C)CO)C(=O)c2cc(-c3cccc(C(=O)N(C)C)c3)cnc2O[C@H]1CN(C)C(=O)Cc1ccccn1,0.7,-7%
CC(=O)c1ccc(N2CCN(C(=O)CNC(=O)c3ccc(Br)o3)CC2)cc1,1.1,-6%
COc1ccc(CN(C)C[C@@H]2OCc3cnnn3CCCC(=O)N([C@H](C)CO)C[C@H]2C)cc1,-1.4,2%
COc1cc(NC(=O)CN2CCN(C(=O)c3ccco3)CC2)c(C)cc1[N+](=O)[O-],-0.8,-4%
CCc1cc(-c2nnn(CCC3COCCO3)c2CC)ccc1-c1cn(CCc2c[nH]c3ccccc23)nn1 (stereo unspecified),-3.0,-2%
COCCCN(C(=O)C1=COCCO1)c1c(N)n(Cc2ccccc2)c(=O)[nH]c1=O,0.0,2%
C[C@H](CO)N1C[C@H](C)[C@@H](CN(C)Cc2cccnc2)Oc2cc(-c3cccnc3)ccc2S1(=O)=O,1.7,3%
CCOC(=O)C(CC1=CS(=O)(=O)c2ccc(Cl)cc21)(NC(C)=O)C(=O)OCC,-2.9,1%
C[C@@H]1CN([C@@H](C)CO)C(=O)CCCn2cc(nn2)CO[C@H]1CN(C)S(=O)(=O)c1cccs1,2.1,1%
NC(=O)c1ccc(NC(=O)COC(=O)c2ccccc2SCC(=O)N2CCCC2)cc1,-3.1,-13%
CCC(CC)c1nnc(NC(=O)CSCc2c(C)noc2C)s1,-2.6,9%
O=S1(=O)CC(N2CCCCC2)C1CN1CCCCC1 (stereo unspecified),-2.3,0%
COC(=O)C[C@H]1C[C@H]2c3cc(NC(=O)C4CCOCC4)ccc3O[C@H]2[C@H](CO)O1,-0.9,7%
CCCCN1C(=O)C(CC(=O)NC2CCCCC2)CC(C(=O)N(CC)CC)=C1C (stereo unspecified),1.5,8%
COc1ccc(C#Cc2cnc3c(c2)C(=O)N([C@H](C)CO)C[C@H](C)[C@@H](CN(C)C(=O)Nc2cccc(OC)c2)O3)cc1,-0.6,-1%
C[C@H]1CN(C2CCCCC2)C(=O)[C@@H]1CC(=O)Nc1ccc(Br)cc1,-3.5,3%
COc1ccc(C(=O)Oc2ccc(C)cc2)cc1S(=O)(=O)N1CCOCC1,0.8,-10%
CC(=O)N1c2ccc(S(=O)(=O)NCCC(=O)Nc3ccc(Cl)cc3)cc2CC1C (stereo unspecified),1.2,9%
N#Cc1ccc(Cl)cc1NC(=O)CN1C(=O)C(=O)N(CCC2=CCCCC2)C1=O,-4.2,-10%
CCOc1ccccc1N(CC(=O)N1CCN(Cc2ccccc2)CC1)S(=O)(=O)c1ccccc1,-1.1,-6%
Cc1c(NC(=O)COC(=O)/C=C/c2cccc(F)c2)c(=O)n(-c2ccccc2)n1C,0.2,1%
